Source: PubChem BioAssay
GPT2 inh = blocks human glutamate pyruvate transaminase 2; Q8TD30; Recombinant GPT2, coupled pyruvate oxidase/HRP Amplex Red fluorescence; Potency, µM (highest dose often 57.7 µM), without a hit: at the top dose activity change, negative = inhibition, most hits filed as inhibitors; 100,000 compounds, 0.25% hits; further: nearly all actives have a fitted effect of over 60% in size; many of its hits are not listed in these tables
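Recombinant GPT2 (10ng/uL) with 250uM a-KG and 2mM L-alanine, 30 min at room temperature, in HEPES pH 7.5 buffer. Pyruvate detected by pyruvate oxidase/HRP/Amplex Red fluorescence after 30 min in the dark; AOA (50uM) as positive control.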
SNCA expr inh = reduces expression of the alpha-synuclein gene; HEK-293 SNCA-luciferase knock-in, luminescence, 24 h; Potency, µM (series often up to 57.2 µM), without a hit: at the top dose activity change, negative = inhibition, hits mostly inhibitors; 140,000 compounds, 0.17% hits; AID 1671194;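 further: plate controls were DMSO cells for no effect and cell-free wells for full effect; nearly all actives have a fitted effect of over 45% in size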
HEK293 tox = HEK 293 cell cytotoxicity; HEK 293 viability, ATP luminescence (CellTiter-Glo), 48-72 h; AID 1345083; 94,000 compounds, 6.6% hits; Potency, µM (titrated, usually from 115 µM), for inactives: top-dose activity change, negative = cytotoxicity, usual class: inhibitors; further: nearly all actives have a fitted effect of over 60% in size
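HEK 293 cells at 250 cells/well were exposed to compounds by pintool transfer for 48 or 72 hr at 37 degree Celsius, 5% CO2. Viability was read as ATP-coupled luminescence with CellTiter-Glo after 10 min at room temperature.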
Luciferase inh = inhibitors of firefly (Photinus pyralis) luciferase; P08659; 76,000 compounds, 2.5% hits; Potency, µM (highest dose often 115 µM), inactives show at the top dose activity change, negative = inhibition, usual class: inhibitors; purified P. pyralis luciferase, luminescence, biochemical; further: nearly all actives have a fitted effect of over 65% in size
Target sequence (P08659 whole entry, looked up): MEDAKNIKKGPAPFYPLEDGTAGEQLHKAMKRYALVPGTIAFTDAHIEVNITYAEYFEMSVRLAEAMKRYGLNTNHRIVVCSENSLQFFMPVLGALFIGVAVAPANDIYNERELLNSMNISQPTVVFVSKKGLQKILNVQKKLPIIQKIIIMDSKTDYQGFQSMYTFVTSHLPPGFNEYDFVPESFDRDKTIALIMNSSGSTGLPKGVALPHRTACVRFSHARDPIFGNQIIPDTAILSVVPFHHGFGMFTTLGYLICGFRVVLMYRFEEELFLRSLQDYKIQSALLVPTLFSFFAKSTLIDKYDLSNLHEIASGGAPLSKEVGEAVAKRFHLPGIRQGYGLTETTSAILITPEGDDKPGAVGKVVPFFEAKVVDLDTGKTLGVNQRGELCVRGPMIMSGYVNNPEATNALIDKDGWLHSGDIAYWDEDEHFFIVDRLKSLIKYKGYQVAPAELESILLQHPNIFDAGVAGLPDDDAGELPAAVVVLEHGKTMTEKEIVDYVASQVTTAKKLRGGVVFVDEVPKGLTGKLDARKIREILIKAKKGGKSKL
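Purified P. pyralis luciferase (10nM final) in 50mM Tris acetate pH 7.5, 10mM Mg acetate, 0.01% Tween-20, 0.05% BSA with 10uM D-luciferin and 10uM ATP. Compounds titrated qHTS. Luminescence imaged on CCD.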
NIH3T3 tox = kills NIH 3T3 cells; NIH 3T3 viability, CellTiter-Glo ATP luminescence, 48-72 h; Potency, µM (highest dose often 96.7 µM), for inactives: at the highest dose activity change, negative = cytotoxicity, usual class: inhibitors; 94,000 compounds, 4.3% hits; further: nearly all actives have a fitted effect of over 55% in size
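Mouse fibroblast NIH 3T3 cells, 400 per well, received compound via pintool and were incubated for 48 or 72 hr prior to CellTiter-Glo ATP luminescence measurement.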
HEK293 viab = cell viability loss counter-screen | HEK-293-SNCA-luc viability, GF-AFC fluorescence, 24 h | Potency, µM (top dose mostly 57.1 µM), for inactives: top-dose activity change, negative = cytotoxicity, hits mostly cytotoxic | 150,000 compounds, 0.12% hits;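 further: 0% = DMSO-treated cells and -100% = medium-only wells without cells; nearly all actives have a fitted effect of over 30% in size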
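Cytotoxicity counterscreen: after 24 h compound treatment of genome-edited SNCA-luciferase HEK-293 cells, live-cell protease substrate GF-AFC read by fluorescence after 30 min; activity scaled between DMSO (0%) and medium-only (-100%), curves Hill-fitted.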
An asterisk follows results filed as active; i = inactive; ? = inconclusive; / = not tested or not shown; [ ] = another dose, or the depositor's remark. The call rests on the fitted dose curve; in most records, active means well fitted curve in the direction sought with a large enough effect; inconclusive means small, poorly fitted or top-dose-only effect, or another doubt; inactive means no such curve, though single readings can be large; an effect the other way counts as inactive or inconclusive. Unless noted, on the % scale 0 is the no-effect control and ±100 the full control effect; potency means the concentration at half of the fitted maximal effect. An excerpt; rates above refer to the full screens.

1. CNC(=O)c1cccc(-c2cnc(NC(=O)Cc3ccccc3)c3c2CCO3)c1
2. C[S+](=O)([O-])c1ccc(-c2cc(-c3cccnc3)c3cncn3c2)cc1
3. Cc1noc([C@@H]2CN(C(=O)CC(C)C)C[C@H]2CO)n1
4. Cc1cc(CNC(=O)c2cccc(C3CCNC3)c2)ccc1F (centres undefined)
5. Cc1cnc(C2CC2)n1CCNC(=O)c1cncn1C
6. O=C(Nc1ncc(-c2ccccc2)c2c1OCC2)C1CCOCC1
entry no.	1	2	3	4	5	6
GPT2 inh	-5.3%[88.5 µM]	-6.1%[88.5 µM]	0.1%	i	-0.3%	1.8%[88.5 µM]
SNCA expr inh	-54.6%[87.6 µM]	41.4%[activator][87.6 µM]	0.4%	-5.6%	-23.8%	-5.3%[87.6 µM]
HEK293 tox	?	?	-21.9%	?	3.3%	?
Luciferase inh	0.447µM*	-22.7%[172 µM]	-12.8%	6.3%	1.3%	16.0%[172 µM]
NIH3T3 tox	?	?	-6.7%	-29.7%	i	?
HEK293 viab	0.8%[87.6 µM]	2.7%[87.6 µM]	-7.3%	-25.8%	-4.0%	0.3%[87.6 µM]

Structures from the list above containing a carbonyl joined to an NH by a bond outside any ring, in the order listed:
1. CNC(=O)c1cccc(-c2cnc(NC(=O)Cc3ccccc3)c3c2CCO3)c1
4. Cc1cc(CNC(=O)c2cccc(C3CCNC3)c2)ccc1F (centres undefined)
5. Cc1cnc(C2CC2)n1CCNC(=O)c1cncn1C
6. O=C(Nc1ncc(-c2ccccc2)c2c1OCC2)C1CCOCC1
entry no.	1	4	5	6
GPT2 inh	-5.3%[88.5 µM]	i	-0.3%	1.8%[88.5 µM]
SNCA expr inh	-54.6%[87.6 µM]	-5.6%	-23.8%	-5.3%[87.6 µM]
HEK293 tox	?	?	3.3%	?
Luciferase inh	0.447µM*	6.3%	1.3%	16.0%[172 µM]
NIH3T3 tox	?	-29.7%	i	?
HEK293 viab	0.8%[87.6 µM]	-25.8%	-4.0%	0.3%[87.6 µM]

Other compounds follow:
7. Cc1cc(C)c2c(=O)cc(C(=O)Nc3ccccc3C(F)(F)F)oc2c1
8. O=C(O)c1cccc(-c2cccc(O)c2)c1
9. CCSc1nn(CC(=O)Nc2cccc(CC)c2)c(N)c1S(=O)(=O)c1ccccc1
10. Cc1cc(C(=O)NCc2ccccc2Cl)c2c(C)nn(-c3cccc(F)c3)c2n1
11. O=C(COc1ccccc1)Nc1ccc2n(c1=O)C[C@H]1C[C@@H]2CN(C(=O)c2cccnc2)C1
12. Cc1ccc(Cl)cc1NC(=O)Nc1cn(CC(C)C)c(=O)c2ccccc12
entry no.	7	8	9	10	11	12
GPT2 inh	/	0.1%[88.5 µM]	/	/	2.0%	/
SNCA expr inh	35.8%[activator]	17.7%[87.6 µM]	?	-11.3%	?	-11.5%
HEK293 tox	/	i	/	/	-10.9%	/
Luciferase inh	/	/	/	/	0.0%	/
NIH3T3 tox	/	i	/	/	-3.7%	/
HEK293 viab	6.6%	1.9%[87.6 µM]	-11.1%	-6.3%	3.2%	1.3%

13. CCNC(=O)CC1C(=O)N(c2ccc(F)cc2)C(=O)N1CCOC (centres undefined)
14. COc1cccc([S+](=O)([O-])N2CCC(N3Cc4ccccc4C3=O)CC2)c1
15. COc1cccc(CNC(=O)C(=O)Nc2c3c(nn2-c2ccccc2)CSC3)c1
16. Cc1cc2c(cc1S(=O)(=O)N(CCN(C)C)Cc1ccco1)OCC(=O)N2
17. CCC(C(=O)Nc1cc(OC)cc(OC)c1)n1nc(-c2ccc(C)c(C)c2)ccc1=O (centres undefined)
18. CCOc1ccc(CNS(=O)(=O)c2ccc3c(c2)CC(C)N3C(C)=O)cc1OC (centres undefined)
entry no.	13	14	15	16	17	18
GPT2 inh	/	i	/	/	/	/
SNCA expr inh	21.9%	13.5%	131.7%[activator]	-11.5%	-14.9%	21.2%
HEK293 tox	/	-29.0%	/	/	/	/
Luciferase inh	/	/	/	/	/	/
NIH3T3 tox	/	?	/	/	/	/
HEK293 viab	6.8%	7.7%	11.8%	-4.2%	-17.7%	1.9%

19. COc1cccc(C(=O)NCC(c2ccc3c(c2)OCO3)N2CCOCC2)c1 (centres undefined)
20. O=C(CSc1oc(-c2ccccc2)nc1S(=O)(=O)c1ccc(Cl)cc1)NC1CCCCC1
21. CC1=C(C(=O)Nc2cccnc2)C(c2cccc(F)c2)n2nc(SCc3ccccc3)nc2N1 (centres undefined)
22. CC1=C(C(=O)Nc2cccnc2)C(c2cccc(O)c2)n2nc(SCc3ccccc3)nc2N1 (centres undefined)
23. CN(C)C(=O)c1nc(-c2ccc(Cl)cc2Cl)c2cnccn12
24. O=C(Cc1ccc(F)cc1)N1CCCC(c2noc(COc3ccccc3F)n2)C1 (centres undefined)
entry no.	19	20	21	22	23	24
GPT2 inh	/	/	/	/	i	i
SNCA expr inh	6.0%	-5.0%	-16.4%	16.8%	-16.1%	73.6%[activator]
HEK293 tox	/	/	/	/	-27.4%	?
Luciferase inh	/	/	/	/	/	-28.1%
NIH3T3 tox	/	/	/	/	-16.0%	?
HEK293 viab	?	9.1%	13.2%	5.2%	11.0%	-1.1%

The list goes on, starting with the last 2 of the part before.
23. CN(C)C(=O)c1nc(-c2ccc(Cl)cc2Cl)c2cnccn12
24. O=C(Cc1ccc(F)cc1)N1CCCC(c2noc(COc3ccccc3F)n2)C1 (centres undefined)
25. COc1cccc(CNc2nccn(-c3ccc(OC)c(OC)c3)c2=O)c1
26. C[S+](=O)([O-])N1CCn2c(nn(-c3ccncc3)c2=O)C1
27. Cc1ccc(-n2nc3n(c2=O)CCN([S+](C)(=O)[O-])C3)cc1
28. Cn1ncc2c(N3CCN(c4ccccc4Cl)CC3)ncnc21
29. COc1ccccc1N1CCN(CC(O)COc2ccc(Cl)c(C)c2)CC1 (centres undefined)
30. CCn1cc(-c2nc3cc(S(=O)(=O)NC(C)C)ccc3n2C(C)C)c(C)n1
31. CSc1nn(CC(=O)Nc2ccccc2F)c(N)c1S(=O)(=O)c1ccccc1
32. CCc1ccccc1NC(=O)c1sc(-n2nc(C)c(Cc3ccccc3)c2C)nc1C
33. N#Cc1ccc(CN2CCC3(C2)C(=O)N(c2ccccc2)c2ccccc23)cc1 (centres undefined)
entry no.	23	24	25	26	27	28	29	30	31	32	33
GPT2 inh	i	i	/	i	i	/	/	i[11.5 µM]	/	/	-5.5%
SNCA expr inh	-16.1%	73.6%[activator]	-28.5%	-16.2%[87.6 µM]	9.0%[87.6 µM]	50.8%[activator]	51.7%[activator]	3.6%	-16.9%	-10.5%	-9.6%
HEK293 tox	-27.4%	?	/	-19.2%[172 µM]	-3.5%[172 µM]	/	/	-26.9%	/	/	15.8µM*
Luciferase inh	/	-28.1%	/	7.1%[172 µM]	-20.7%[172 µM]	/	/	3.5%	/	/	/
NIH3T3 tox	-16.0%	?	/	-15.5%[138 µM]	-9.1%[138 µM]	/	/	?	/	/	?
HEK293 viab	11.0%	-1.1%	-2.0%	3.3%[87.6 µM]	5.5%[87.6 µM]	3.0%	-23.8%	2.9%	-12.6%	13.4%	-18.4%
